Source: PubChem
STAT3 binder: STAT3 binders, primary screen, biochemical, small molecule microarray, single point, set 2; calls only; hit rate 0.2% among 17,000; His-STAT3 binding, anti-His fluorescence; AID 624138, 2012;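 active = compounds whose four printed spots each show fluorescence over background unusually high for their array block, chance value under 7%; compounds were printed on slides so no solution concentration is given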;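 also: about 2 pmol printed per array spot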
c-Myc SMM: binders of human c-Myc, primary screen, biochemical, small molecule microarray, anti-His fluorescence | Myc proto-oncogene protein (Homo sapiens), P01106 | His-c-Myc binding | calls only | hit rate 1.5% among 17,000 | AID 624141, 2012;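 active = spot fluorescence over background with P-value below 7% in all four replicate spots, showing protein binding; compounds were printed on slides so no solution concentration is given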;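 also: score is binary with 100 for all four spots passing and 0 otherwise; about 2 pmol printed per array spot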
Target sequence (P01106 whole entry, looked up): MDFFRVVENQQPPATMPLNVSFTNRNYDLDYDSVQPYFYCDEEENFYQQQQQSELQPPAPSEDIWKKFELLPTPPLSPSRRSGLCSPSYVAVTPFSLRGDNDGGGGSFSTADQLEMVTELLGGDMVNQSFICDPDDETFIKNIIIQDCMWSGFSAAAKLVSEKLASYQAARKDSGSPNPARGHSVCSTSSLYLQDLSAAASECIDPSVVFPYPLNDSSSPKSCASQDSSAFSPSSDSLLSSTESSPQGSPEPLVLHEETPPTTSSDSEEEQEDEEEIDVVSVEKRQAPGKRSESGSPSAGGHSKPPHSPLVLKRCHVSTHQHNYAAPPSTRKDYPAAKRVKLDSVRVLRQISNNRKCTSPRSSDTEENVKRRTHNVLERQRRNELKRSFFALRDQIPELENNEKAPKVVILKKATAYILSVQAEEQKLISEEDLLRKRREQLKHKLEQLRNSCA
ID4 binder: binders of human ID4 protein, primary screen, biochemical, small molecule microarray, single point | calls only | hit rate 1.2% among 31,000 | Flag-ID4 binding, fluorescence F/B | DNA-binding protein inhibitor ID-4 (Homo sapiens), P47928;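 active = spot signal over background at p below 0.07 in all four prints; compounds were printed on slides so no solution concentration is given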;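 also: a binder raises fluorescence above local background on the spot; about 2 pmol printed per array spot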
Target sequence (P47928 whole entry, looked up): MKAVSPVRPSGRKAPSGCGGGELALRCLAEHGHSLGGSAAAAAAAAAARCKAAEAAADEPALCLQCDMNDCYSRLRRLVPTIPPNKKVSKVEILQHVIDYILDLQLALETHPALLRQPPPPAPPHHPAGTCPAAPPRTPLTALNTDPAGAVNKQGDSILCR
mut p53 SMM: binders of human mutant p53, primary screen, biochemical, small molecule microarray, anti-GST fluorescence | calls only | small molecule microarray binding | AID 624136, 2012 | hit rate 0.4% among 17,000;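 active = compounds whose four printed spots each glow above background more than chance allows, each with a p-value under 7%; compounds were printed on slides so no solution concentration is given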;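 also: about 2 pmol printed per array spot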
Calls only; i = inactive; x = no result given; + = active, no number.

SMILES	STAT3 binder	c-Myc SMM	ID4 binder	mut p53 SMM
C[C@@H]1CN([C@H](C)CO)C(=O)c2cc(NS(C)(=O)=O)ccc2O[C@@H](C)CCCCO[C@@H]1CN(C)C(=O)c1ccncc1	i	i	i	i
CCOC(=O)c1c(NC(=S)NC(=O)c2ccc(OC)c([N+](=O)[O-])c2)sc2c1CCC2	i	+	i	i
C[C@H](CO)N1C[C@H](C)[C@H](CN(C)C(=O)Nc2ccc(C(F)(F)F)cc2)Oc2c(NS(=O)(=O)c3ccc(Cl)cc3)cccc2C1=O	i	i	i	i
COc1cc(NC(=O)C(C)Oc2ccccc2)c(Cl)cc1NC(=O)c1ccc(Cl)cc1 (stereo not drawn)	i	i	i	i
C[C@@H]1CCCCO[C@@H](CN(C)C(=O)CCC(F)(F)F)[C@@H](C)CN([C@@H](C)CO)C(=O)c2cc(NS(=O)(=O)c3cn(C)cn3)ccc2O1	i	i	i	i
Cn1c(SCC(=O)N2c3ccccc3Sc3ccccc32)nnc1-c1ccco1	i	i	i	i
COc1c(O[C@@H]2O[C@H](C(=O)O)[C@@H](O)[C@H](O)[C@H]2O)cc2oc(-c3ccc(O)cc3)cc(=O)c2c1O	i	i	i	i
C[C@@H]1CN([C@@H](C)CO)C(=O)Cc2cc(NS(=O)(=O)c3ccccc3)ccc2O[C@@H]1CN(C)S(=O)(=O)c1ccc(F)cc1	i	i	i	i
C[C@@H]1CCCCO[C@H](CN(C)C(=O)Cc2ccccc2)[C@@H](C)CN([C@H](C)CO)C(=O)c2cc(NS(C)(=O)=O)ccc2O1	i	i	i	i
C[C@@H]1CN([C@@H](C)CO)C(=O)c2cc(NC(=O)CCCN(C)C)ccc2O[C@@H](C)CCCCO[C@@H]1CN(C)C(=O)Nc1ccccc1	i	i	i	i
COc1ccc(C(C)C)cc1S(=O)(=O)Nc1ccccn1	i	i	i	i
C[C@@H]1CN([C@H](C)CO)C(=O)c2cc(NC(=O)CCCN(C)C)ccc2O[C@H]1CN(C)Cc1ccc(C(=O)O)cc1	i	i	i	i
C[C@@H]1CCCCO[C@H](CN(C)C(=O)Nc2ccc3c(c2)OCO3)[C@@H](C)CN([C@@H](C)CO)C(=O)c2cc(NS(C)(=O)=O)ccc2O1	i	i	i	i
C[C@H]1CN([C@@H](C)CO)C(=O)c2cccc(NC(=O)c3cnccn3)c2O[C@@H]1CN(C)S(=O)(=O)c1cn(C)cn1	i	i	i	i
COc1ccc(S(=O)(=O)Nc2ccc3c(c2)C(=O)N([C@H](C)CO)C[C@H](C)[C@@H](CN(C)S(=O)(=O)c2cn(C)cn2)O3)cc1	i	i	i	i
C[C@H](CO)N1C[C@H](C)[C@@H](CN(C)Cc2ccc3c(c2)OCO3)Oc2c(NC(=O)C3CC3)cccc2C1=O	i	i	x	i
C[C@H]1CCCCO[C@H](CN(C)C(=O)c2ccncc2)[C@@H](C)CN([C@@H](C)CO)C(=O)c2cc(NS(C)(=O)=O)ccc2O1	i	i	i	i
C[C@H]1CN([C@@H](C)CO)C(=O)CCCn2cc(nn2)CO[C@@H]1CN(C)S(=O)(=O)c1cn(C)cn1	i	i	i	i
C[C@@H]1CN([C@H](C)CO)C(=O)CCCn2cc(nn2)CO[C@@H]1CN(C)C	i	i	i	i
Cc1nnc(SCC(=O)Nc2ccc(Oc3ccccc3)cc2)[nH]c1=O	i	i	i	i
O=C(NCCO)C1=C[C@H](Oc2ccccc2I)[C@@H](O)[C@H](N(Cc2ccco2)C(=O)Cc2ccccc2)C1	i	i	i	i
C[C@H]1CCCCO[C@@H](CN(C)C(=O)C2CCCCC2)[C@@H](C)CN([C@@H](C)CO)C(=O)c2cc(NS(C)(=O)=O)ccc2O1	i	i	i	i
C[C@H](CO)N1C[C@H](C)[C@H](CN(C)Cc2ccccc2)OCCCC[C@H](C)Oc2ccc(N(C)C)cc2C1=O	i	i	i	i
[N-]=[N+]=NCc1ccccc1C[C@]1(C(=O)NCC(O)CO)N=C(c2ccc(OCCCO)cc2)O[C@H]1c1ccccc1 (stereo partly drawn)	i	i	i	i
C[C@@H]1CN([C@H](C)CO)C(=O)c2cccc(NS(=O)(=O)c3cccs3)c2O[C@@H]1CN(C)C(=O)Nc1cccc2ccccc12	i	i	i	i
SMILES	STAT3 binder	c-Myc SMM	ID4 binder	mut p53 SMM
CN(C)c1nc(N)c(C(=O)Nc2cccnc2)nc1Cl	i	i	i	i
C[C@@H]1CN([C@H](C)CO)C(=O)c2cccc(NS(=O)(=O)c3cccs3)c2O[C@H]1CN(C)Cc1ccc(C(=O)O)cc1	i	i	i	i
CC(C)NC(=O)N(C)C[C@H]1Oc2ccc(NC(=O)CCN3CCOCC3)cc2CC(=O)N([C@H](C)CO)C[C@H]1C	i	i	i	i
Cc1nn(C)c(C)c1CNC(=O)c1cc(-c2ccccc2Cl)nc2c(C)cccc12	i	i	i	i
CC(C)NC(=O)N(C)C[C@H]1OCCCC[C@H](C)Oc2ccc(NS(C)(=O)=O)cc2C(=O)N([C@H](C)CO)C[C@@H]1C	i	i	i	i
CCOC(=O)c1c(-c2ccccc2)csc1NC(=O)c1cccc(OC(C)=O)c1	i	i	i	i
O=C(COc1ccc2ccccc2c1Br)Nc1ncn[nH]1	i	i	i	i
CC1=CCC2C(C)(C)CCC[C@]2(C)[C@@]12CC[C@](C)(CC(=O)O)O2 (stereo partly drawn)	i	i	x	i
C[C@@H]1CCCCO[C@H](CN(C)C(=O)Nc2ccccc2)[C@H](C)CN([C@H](C)CO)C(=O)c2cc(NC(=O)CCCN(C)C)ccc2O1	i	i	i	i
Cc1ccc(S(=O)(=O)N(CC(=O)O)CC(=O)O)cc1	i	i	i	i
C[C@@H]1CN([C@@H](C)CO)C(=O)c2cccc(NC(=O)Nc3cccc4ccccc34)c2O[C@H]1CN(C)S(=O)(=O)c1cn(C)cn1	i	i	i	i
C[C@H](CO)N1C[C@H](C)[C@H](CN(C)Cc2ccc(-c3ccccc3)cc2)Oc2ccc(NC(=O)CCN3CCOCC3)cc2CC1=O	i	i	i	i
CC(=O)Nc1cccc(NC(=O)c2cc(-c3ccccn3)nc3ccc(Cl)cc23)c1	i	i	i	i
Cn1cnnc1SCC(=O)c1ccc2c(c1)OCCO2	i	i	i	i
C[C@H]1CN([C@@H](C)CO)C(=O)c2cc(NC(=O)Cc3cn(C)c4ccccc34)ccc2O[C@@H]1CN(C)Cc1ccc(C(=O)O)cc1	i	i	x	i
CCC(=O)Nc1cccc(NC(=O)COc2cc(C)cc(C)c2)c1	i	i	i	i
COc1ccc(S(=O)(=O)N(C)C[C@H]2Oc3ccc(NC(=O)Cc4cn(C)c5ccccc45)cc3C(=O)N([C@H](C)CO)C[C@@H]2C)cc1	i	i	i	i
C[C@H](CO)N1C[C@H](C)[C@@H](CN(C)C)Oc2ccc(NS(=O)(=O)c3cccs3)cc2C1=O	i	i	i	i
C[C@@H]1CN([C@@H](C)CO)C(=O)c2cccc(NC(=O)Nc3ccc(C(F)(F)F)cc3)c2O[C@@H]1CN(C)S(=O)(=O)c1cccs1	i	i	i	i
C[C@@H]1CN([C@@H](C)CO)C(=O)c2cccc(NC(=O)c3cnccn3)c2O[C@H]1CN(C)C(=O)NC1CCCCC1	i	i	i	i
CC(C)NC(=O)N(C)C[C@H]1OCCCC[C@H](C)Oc2ccc(NC(=O)Nc3ccc(C(F)(F)F)cc3)cc2C(=O)N([C@@H](C)CO)C[C@H]1C	i	+	i	i
Cc1nn(C)c(C)c1NC(=O)CSc1nnc(C)n1-c1ccccc1	i	i	i	i
C[C@@H]1CN([C@H](C)CO)C(=O)c2cc(NS(=O)(=O)c3ccccc3)ccc2O[C@@H](C)CCCCO[C@@H]1CN(C)Cc1ccccc1	i	i	i	i
C=CCOC(=O)C1=C[C@@H](c2ccc(Br)cc2)[C@H](CCCO)[C@@H](OCC)O1	i	i	x	i
C[C@@H]1CN([C@H](C)CO)C(=O)c2cccc(NC(=O)Nc3ccc4c(c3)OCO4)c2O[C@H]1CN(C)C	i	i	i	i

Some entries already given with just mut p53 SMM.
molecule | mut p53 SMM
C[C@@H]1CN([C@@H](C)CO)C(=O)c2cccc(NC(=O)Nc3ccc(C(F)(F)F)cc3)c2O[C@@H]1CN(C)S(=O)(=O)c1cccs1 | i
C[C@@H]1CN([C@@H](C)CO)C(=O)c2cccc(NC(=O)c3cnccn3)c2O[C@H]1CN(C)C(=O)NC1CCCCC1 | i
CC(C)NC(=O)N(C)C[C@H]1OCCCC[C@H](C)Oc2ccc(NC(=O)Nc3ccc(C(F)(F)F)cc3)cc2C(=O)N([C@@H](C)CO)C[C@H]1C | i
Cc1nn(C)c(C)c1NC(=O)CSc1nnc(C)n1-c1ccccc1 | i
C[C@@H]1CN([C@H](C)CO)C(=O)c2cc(NS(=O)(=O)c3ccccc3)ccc2O[C@@H](C)CCCCO[C@@H]1CN(C)Cc1ccccc1 | i
C=CCOC(=O)C1=C[C@@H](c2ccc(Br)cc2)[C@H](CCCO)[C@@H](OCC)O1 | i
C[C@@H]1CN([C@H](C)CO)C(=O)c2cccc(NC(=O)Nc3ccc4c(c3)OCO4)c2O[C@H]1CN(C)C | i

Gathered by group: the compounds so far containing an NH in an aromatic ring.
SMILES	STAT3 binder	c-Myc SMM	ID4 binder	mut p53 SMM
Cc1nnc(SCC(=O)Nc2ccc(Oc3ccccc3)cc2)[nH]c1=O	i	i	i	i
O=C(COc1ccc2ccccc2c1Br)Nc1ncn[nH]1	i	i	i	i

More entries
SMILES	STAT3 binder	c-Myc SMM	ID4 binder	mut p53 SMM
C[C@H]1CN([C@@H](C)CO)C(=O)c2cccc(NC(=O)Nc3cccc4ccccc34)c2O[C@@H]1CN(C)S(=O)(=O)c1cn(C)cn1	i	i	i	i
C[C@H]1CN([C@@H](C)CO)C(=O)CCCn2cc(nn2)CO[C@H]1CN(C)C(=O)c1ccc2ccn(C)c2c1	i	i	i	i
CCO[C@@H]1OC(C(=O)N2CCN(Cc3ccc4c(c3)OCO4)CC2)=C[C@H](c2ccccc2)[C@H]1CCCO	i	i	i	i
C[C@@H]1CN([C@H](C)CO)C(=O)c2cccc(NC(=O)Nc3ccc4c(c3)OCO4)c2O[C@H]1CN(C)S(=O)(=O)c1ccccc1	i	i	i	i
C[C@@H]1CN([C@@H](C)CO)C(=O)CCCn2nncc2CO[C@H]1CN(C)C	i	i	i	i
CNC[C@@H]1Oc2ccc(N(C)C)cc2C(=O)N([C@@H](C)CO)C[C@H]1C	i	i	i	i
N#C/C(=C/c1ccc(O)c(O)c1)C(=O)NCc1ccccc1	i	i	i	i
CNC[C@H]1Oc2ccc(NC(=O)CCN3CCOCC3)cc2CC(=O)N([C@H](C)CO)C[C@H]1C	i	i	i	i
COc1ccc(CN(C)C[C@H]2Oc3ccc(NC(=O)CCC(F)(F)F)cc3C(=O)N([C@H](C)CO)C[C@@H]2C)cc1	i	i	i	i
C[C@H](CO)N1C[C@H](C)[C@@H](CN(C)Cc2ccc(Cl)c(Cl)c2)Oc2c(cccc2N(C)C)C1=O	i	i	i	i
Nc1nc(SCC(=O)NC2CCCCC2)n[nH]1	i	i	i	i
OCc1ccc(-c2nn(Cc3ccccc3)c3ccccc23)o1	i	i	i	i
C[C@@H]1CCCCO[C@@H](CN(C)C(=O)c2ccccc2)[C@H](C)CN([C@H](C)CO)C(=O)c2cc(NC(=O)Nc3ccc4c(c3)OCO4)ccc2O1	i	i	i	i
Cc1ccc(-c2nnn(CC(=O)Nc3ccc4c(c3)OCCO4)n2)cc1	i	i	i	i
CCOC(=O)c1c(NC(=O)CSc2ncccn2)sc2c1CCCC2	i	i	i	i
COc1ccc(OC)c(C(=O)CSc2nnc(-c3ccco3)n2C)c1	i	i	i	i
C[C@H](CO)N1C[C@H](C)[C@@H](CN(C)C)Oc2ccc(NC(=O)CCN3CCOCC3)cc2CC1=O	i	i	i	i
Cc1noc(C)c1S(=O)(=O)Nc1ccc2c(c1)C(=O)N([C@@H](C)CO)C[C@H](C)[C@H](CN(C)C)O2	i	i	i	i
Cc1noc(C)c1NC(=O)N(C)C[C@@H]1Oc2ccc(NC(=O)Nc3cccc4ccccc34)cc2C(=O)N([C@@H](C)CO)C[C@@H]1C	i	i	i	i
C[C@@H]1CCCCO[C@@H](CN(C)S(=O)(=O)c2ccccc2)[C@H](C)CN([C@@H](C)CO)C(=O)c2cc(NC(=O)Nc3ccccc3)ccc2O1	i	i	i	i
CC(C)NC(=O)N(C)C[C@H]1OCCCC[C@H](C)Oc2ccc(NS(=O)(=O)c3ccccc3)cc2C(=O)N([C@H](C)CO)C[C@H]1C	i	i	i	i
CC(C)NC(=O)N(C)C[C@H]1OCc2cn(nn2)CCCC(=O)N([C@@H](C)CO)C[C@H]1C	i	i	i	i
C[C@H](CO)N1C[C@H](C)[C@@H](CN(C)C(=O)c2ccc(N3CCN(C)CC3)cc2)OCc2cn(nn2)CCCC1=O	i	i	i	i
C[C@@H]1CCCCO[C@H](CN(C)CC2CCCCC2)[C@@H](C)CN([C@H](C)CO)C(=O)c2cc(NS(=O)(=O)c3ccc(Cl)cc3)ccc2O1	i	i	x	i
CC(C)n1c2ccccc2c2nnc(SCC(=O)N3c4ccccc4Sc4ccccc43)nc21	i	i	i	i
C[C@@H]1CN([C@H](C)CO)C(=O)c2cc(NC(=O)Nc3ccccc3)ccc2O[C@@H](C)CCCCO[C@@H]1CN(C)C	i	i	i	i
COc1cc(O)c2c(c1)OC(c1ccc(O)cc1)CC2=O (stereo not drawn)	i	i	i	i

Some of the compounds tested, so the mix of outcomes need not match the whole.
